Rango complex inh – prevents formation of the Rango-importin beta complex | Q14974 | Rango CFP/YFP FRET sensor + importin beta, 45 min | Potency, µM (titrated, usually from 92.2 µM), inactives show top-dose inhibition of complex formation | actives 0.031% (n = 340,000); active = rising FRET ratio curve, often small or poorly fitted; inconclusive = mostly compound fluorescence or quenching in the first reads; inactive = flat curves in all reads;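 also: potency is read from the fitted curve at half-maximal effect; 0% = DMSO wells and 100% = buffer wells lacking importin beta; nearly all actives have a fitted effect of over 15% in size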
Target sequence (Q14974 whole entry, looked up): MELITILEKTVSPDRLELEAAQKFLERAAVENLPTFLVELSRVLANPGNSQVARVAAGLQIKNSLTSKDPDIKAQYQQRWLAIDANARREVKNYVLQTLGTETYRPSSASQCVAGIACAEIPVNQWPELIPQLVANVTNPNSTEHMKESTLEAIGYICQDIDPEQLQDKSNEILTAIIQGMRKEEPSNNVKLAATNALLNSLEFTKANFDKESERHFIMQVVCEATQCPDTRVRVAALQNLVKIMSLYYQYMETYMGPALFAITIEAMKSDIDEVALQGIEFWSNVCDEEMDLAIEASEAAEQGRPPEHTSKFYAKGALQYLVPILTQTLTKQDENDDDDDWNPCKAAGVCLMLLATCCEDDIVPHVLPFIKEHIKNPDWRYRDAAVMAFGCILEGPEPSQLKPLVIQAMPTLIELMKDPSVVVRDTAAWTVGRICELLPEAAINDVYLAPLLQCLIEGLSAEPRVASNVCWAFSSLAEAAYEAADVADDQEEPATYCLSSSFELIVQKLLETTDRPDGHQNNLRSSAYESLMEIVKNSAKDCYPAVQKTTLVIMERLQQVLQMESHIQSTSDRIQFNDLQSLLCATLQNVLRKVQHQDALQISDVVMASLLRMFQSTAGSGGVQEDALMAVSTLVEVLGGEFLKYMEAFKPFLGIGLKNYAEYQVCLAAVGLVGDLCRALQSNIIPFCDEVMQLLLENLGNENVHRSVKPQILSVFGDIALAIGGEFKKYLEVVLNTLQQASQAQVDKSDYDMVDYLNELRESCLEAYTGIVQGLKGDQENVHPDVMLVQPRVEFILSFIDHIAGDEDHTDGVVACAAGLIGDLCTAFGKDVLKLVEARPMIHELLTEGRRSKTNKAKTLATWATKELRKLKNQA
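Inhibition scored from the CFP 486 nm/YFP 530 nm FRET ratio 45 min after adding 0.125 microM importin beta to 50 nM Rango biosensor preincubated 5 min with compound (room temperature, PBS with DTT, Tween-20, BSA). No-importin wells as positive control.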
GLA inh pH 4.5 – alpha-galactosidase A (human) inhibition, pH 4.5; P06280; purified enzyme, 4-MU-alpha-Gal fluorescence, pH 4.5; activity change, negative = inhibition, % at 105 µM; 230,000 tested, under 10 active; AID 1467; inconclusive = small, poorly fitted or top-dose-only inhibition, or a rising curve; inactive = flat fitted curve, though single readings scatter; no compound was filed as active;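 also: 0% = full activity with enzyme and -100% = basal without enzyme; dose as in the result columns while the protocol names 77 µM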
Rango release inh – prevents RanGTP from dissociating the Rango-importin beta complex | Potency, µM (series often up to 46.1 µM), without a hit: at the highest dose activity change, negative = inhibition | O95149+P62826 | Biochemical FRET Rango-importin beta, RanGTP-induced dissociation | actives 0.071% (n = 340,000); active means falling FRET ratio curve, often poorly fitted, with flat reads before Ran was added; inconclusive means other falling curves, or compound fluorescence or quenching; inactive means flat or rising ratio curve;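 also: potency is read from the fitted curve at half-maximal effect; % of control where 0% means no effect; nearly all actives have a fitted effect of over 45% in size; -100% = wells without RanGTP and RCC1; the record marks most hits as doubtful in a second field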
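Rango/importin beta premix (0.1/0.25 uM final), PBS + 1 mM DTT + 0.02% Tween-20 + 0.1% BSA; cpd 5 min RT; FRET pre-read; + RanGTP-RCC1 (0.6 uM Ran, 2 mM GTP, 0.2 uM RCC1); 45 min RT; FRET post-read, ex 430, em 486/530 nm.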
miR-21 reporter – miR-21 reporter, rising signal; 340,000 tested, under 10 active; Potency, µM (top dose mostly 38.3 µM), for inactives: top-dose reporter change, positive = more light; HeLa miR-21 FLuc reporter, luciferase, 48 h; active = well fitted rising curve with a large enough effect; inconclusive = small, poorly fitted or top-dose-only effect; inactive = no such curve, though single readings can be large or run the other way;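 also: % of control where 0% means no effect; miR-21 action dims this reporter so a rising signal means less miR-21 action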
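Luminescence from a firefly luciferase reporter carrying a miR-21 binding site downstream, stably expressed under a CMV promoter in HeLa cells that make miR-21 endogenously, reports miRNA modulation after 48 h compound exposure up to approximately 40uM final.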
* = called active by the depositor; ? = inconclusive; · = no result given. Not all compounds are listed; rates above refer to the full screens.

compound | Rango complex inh | GLA inh pH 4.5 | Rango release inh | miR-21 reporter
C=C1C(=O)O[C@@]23[C@H]1CC[C@@H](C)[C@@H]2CC[C@@]1(C)O[C@@H]31 | -2.5% | · | -14.4% | ·
Cc1cccc(C2N(c3nccs3)C(=O)C3CCCN32)c1 (centres undefined) | -1.3% | -1.6 | 1.0% | -1.6%
O=C(Nc1ccc2nc(-c3ccccn3)c(-c3ccccn3)nc2c1)N1CCOCC1 | ? | 2.2 | ? | 9.7%
Cc1cccc(/C=N/c2sc3c(c2C#N)CCN(Cc2ccccc2)C3)c1O | ? | 13.3 | ? | -17.7%
COc1cc(/C=C2\SC(=O)N(Cc3ccc(F)cc3)C2=O)cc([N+](=O)[O-])c1O | 0.8% | 0.8 | 4.4% | -2.9%
Cc1cc(C)cc(NC(=O)C/C(N)=N/O)c1 | 6.4% | -3.6 | -9.1% | -0.4%
O=C(c1cccc([N+](=O)[O-])c1)c1ccc2c(c1)OCCOCCOCCOCCO2 | 0.9% | -3.1 | 6.8% | 0.2%
CCn1c(CCn2c3ccccc3c3ccccc32)n[nH]c1=S | 4.8% | -5.4 | 46.4% | 1.2%
O=S(=O)(Nc1ccccc1Cl)c1ccc(F)cc1 | -2.9% | -8.6 | -2.5% | -8.7%
COc1ccc(OCC(=O)Nc2ccc3c(c2)nc(CCNC(C)=O)n3C)cc1 | -1.9% | · | -1.5% | -3.6%
CC(=O)N(C)c1ccc(N=Nc2c(C)[nH]n(C(N)=S)c2=O)cc1 | -8.3% | 0.5 | 0.6% | -37.3%
COc1ccc(-n2c(=S)[nH]c3cc(C(=O)O)ccc3c2=O)cc1 | -0.5% | -3.9 | 11.3% | -2.2%
CC(C)=C[C@H]1C[C@H](C)[C@H]2CC[C@H](C)c3c(O[C@@H]4OC[C@@H](O)[C@H](O)C4O)c(O)c(C)c1c32 (some centres undefined) | -3.9% | · | -16.8% | ·
CN(C)C(CNC(=O)CSc1nnc(-c2ccco2)o1)c1ccccc1 (centres undefined) | -3.4% | 10.3 | -2.5% | 0.0%
O=C(c1cc2nc(-c3ccco3)cc(C(F)(F)F)n2n1)N1CCCc2ccccc21 | 0.6% | 8.0 | -3.9% | -0.3%
CCOc1ccc(C(=O)C(C)OC(=O)c2cnc(C)cn2)cc1 (centres undefined) | 1.0% | · | -3.0% | ·
CC1CN(CC(=O)NCc2ccccc2)CC(C)O1 (centres undefined) | 2.8% | · | 0.9% | 0.1%
C[C@H]1CN=C(N(C)C)N1CCc1ccccc1 | 4.5% | · | -3.6% | ·
COc1ccc(NC(=O)[C@@H]2CCCN2S(=O)(=O)c2cccc3cccnc23)cc1 | 0.1% | · | 7.8% | ·
O=C(COC(=O)Cc1cn2ccsc2n1)Nc1nc2ccccc2s1 | 0.0% | -0.4 | -6.0% | -14.5%
Cc1cn(-c2cc(C(=O)Nc3ccc(C)c(NC(=O)C(=O)c4c[nH]c5ccccc45)c3)cc(C(F)(F)F)c2)cn1 | 4.2% | -1.5 | 0.2% | 16.7%
CCCc1cc(C(=O)NCCc2ccc(OC)c(OC)c2)no1 | 2.7% | 6.1 | 8.1% | -23.9%
COc1ccc(C[C@H]2c3cc(O)c(OC)cc3CC[N+]2(C)[O-])cc1O (some centres undefined) | 4.6% | 3.0 | -16.8% | -2.9%
Cc1ccc(S(=O)(=O)C(C#N)c2nc3ccccc3nc2N2CCCC2)cc1 (centres undefined) | ? | 4.9 | ? | -6.7%
COc1cc(/C=N/NC(=O)c2ccncc2)ccc1OC(=O)c1cc(OC)c(OC)c(OC)c1 | 3.7% | · | -1.2% | 1.8%
O=C(Nc1ccnn1C1CCN(C/C=C/c2ccc(F)cc2)CC1)C1CCCC1 | -3.2% | · | -1.4% | -0.5%
O=C(NCc1ccccn1)C(=O)NCC1OCCN1S(=O)(=O)c1ccc(Cl)cc1 (centres undefined) | 0.2% | · | 0.9% | 0.1%
COc1ccc(C(C)=O)cc1CSc1nc(C)cc(C)n1 | 2.5% | -5.4 | -4.5% | -25.6%
COc1ccc(-c2nn(-c3ccccc3)cc2C(=O)N2CCOCC2)cc1 | -3.9% | -15.3 | -2.7% | -17.2%
CCOC(=O)C1=NNC2(c3ccc(C)cc3)C(=O)N(c3ccc(Cl)cc3)C(=O)C12 (centres undefined) | 0.3% | 0.9 | 0.8% | -2.5%
CC(OC(=O)Cc1n[nH]c(=O)c2ccccc12)C(=O)Nc1ccc(S(N)(=O)=O)cc1 (centres undefined) | -1.8% | · | -1.0% | ·
O=C(Cc1c(F)cccc1Cl)Nc1ccccc1C(=O)N1CCCCC1 | 4.0% | · | 5.7% | ·
C=CCn1c(COc2ccccc2F)nnc1SCC(=O)N1CC(=O)Nc2ccccc21 | -3.7% | 0.4 | 23.6% | -11.9%
O=C(Oc1cccc(NC(=O)c2ccco2)c1)c1cccc(S(=O)(=O)N2CCCCC2)c1 | 2.5% | -13.9 | 1.6% | -16.5%
CSc1ncccc1C(=O)OCC(=O)Nc1cc(C(F)(F)F)ccc1N1CCOCC1 | -1.2% | -1.5 | 9.4% | -9.5%
CC(C)OC(=O)c1cc2c(ccn2C)n1CC(=O)N(Cc1ccccc1)c1ccc(F)cc1 | -0.3% | -3.4 | -9.4% | 16.1%
O=[N+]([O-])c1ccc(/C=N/Nc2ncccc2[N+](=O)[O-])s1 | 0.4% | · | -5.3% | ·
CCOC(=O)Cc1csc(NC(=O)c2ccc3ncsc3c2)n1 | -2.9% | · | -15.9% | -13.9%
COc1cccc(CNCCO)c1OCc1ccccc1 | 0.1% | -4.5 | 1.4% | 1.0%
CCCCc1cc(=O)oc2c(CN3CCN(C)CC3)c(O)ccc12 | ? | · | ? | -0.2%
CN1CCC23c4ccccc4NC1C21CCN(C)C3Nc2ccccc21 | 2.5% | · | 18.3% | ·
CN(CCCN1CCCCC1)C(=O)c1cc(COc2ccc(F)cc2F)on1 | -2.1% | · | 0.1% | -3.8%
Cc1ccc(C)c(NC(=O)CCc2ccc(S(=O)(=O)NC3CCCCC3)cc2)c1 | 0.7% | -6.8 | -8.5% | 6.5%
CCC1CCCCN1S(=O)(=O)c1ccc(NC(=O)c2cccnc2)cc1 (centres undefined) | 0.3% | · | -6.1% | -21.5%
Cc1ccc(C)c(N2N=C(C(=O)Nc3ccc(S(=O)(=O)N4CCCC4)cc3)CCC2=O)c1 | 3.8% | 3.4 | -4.2% | -9.3%
Cc1ccc(C(=O)N/C(=C\c2ccccc2)C(=O)NCc2cccnc2)cc1 | -0.1% | 8.8 | 11.8% | 1.1%
O=C(/C=C/c1ccccc1)Nc1cccc(C(=O)NCCCCc2ccccc2)c1 | -1.5% | · | -5.5% | ·
COC(=O)C1CCN(C(c2ccc(OC)c(OC)c2)c2sc3nc(C)nn3c2O)CC1 (centres undefined) | -2.0% | 8.6 | -5.5% | -4.5%
O=C(/C=N/O)Nc1ccccc1 | 4.3% | -6.2 | -8.2% | 0.4%
Cc1ccc(N2C(=O)NC(NS(=O)(=O)c3ccc(C)cc3)(C(F)(F)F)C2=O)cc1 (centres undefined) | -5.4% | · | -11.8% | 4.6%
CCCC(=O)NC(c1ccccc1)c1ccc2cccnc2c1O (centres undefined) | -0.7% | · | 4.9% | 24.3%
CCNC(=O)N1CCC(n2nccc2NC(=O)CCCc2ccccc2)CC1 | 0.1% | · | -6.1% | -5.9%
CN1CCN(S(=O)(=O)c2ccc(NC(=O)COc3ccccc3)cc2)CC1 | 1.6% | 0.7 | 28.3% | 0.1%
NS(=O)(=O)c1ccc(NC(=S)NC(=O)c2ccc3c(c2)OCO3)cc1 | -2.1% | 4.7 | 10.2% | -8.2%
Cc1cc(Nc2ccc(C)c(C)c2)c2ccccc2n1 | 1.6% | · | 11.6% | 25.1%
COc1ccc2cc3cc(C(=O)N4CCN(c5ccccn5)CC4)oc3nc2c1 | -2.7% | · | -10.6% | -6.1%
COC(=O)CNC(=O)CSc1nnc(C)c(=O)[nH]1 | -2.5% | -20.2 | 8.6% | -1.5%
Cc1cccc(Nc2nc(C)nc3c2oc2ccccc23)c1 | 0.5% | · | ? | 14.7%
O=C(NCc1ccc2c(c1)OCO2)C1CCCN1S(=O)(=O)c1ccc(F)cc1 (centres undefined) | 5.9% | -4.2 | -5.9% | 3.7%
CCN1C[C@@H]2[C@@H]3C(=O)N(C)C(=O)[C@@H]3[C@](C)(C1=O)N2C(=O)c1ccc(C(F)(F)F)cc1 | 1.4% | · | 7.7% | ·

Continued:
compound | Rango complex inh | GLA inh pH 4.5 | Rango release inh | miR-21 reporter
CCOc1ccc(C(=O)NC2CCN(C(=O)Nc3ccc(F)cc3)CC2)cc1 | 4.6% | · | 10.3% | 2.9%
Cc1occc1C(=O)NNS(=O)(=O)c1ccc([N+](=O)[O-])cc1 | 2.4% | · | 1.7% | -1.7%
C=CCC[C@H](Cc1ccc(F)cc1)C(=O)OC[C@@H](NC(=O)[C@@H](CC=C)CC(=O)N(CCO)Cc1ccccc1)C(C)(C)C | -2.0% | · | 1.0% | ·
O=C(CCS(=O)(=O)c1ccccc1)N1CCN(c2cccc(C(F)(F)F)c2)CC1 | 0.3% | · | -4.2% | 11.6%
COc1cc(OC)c(C2N(c3ccc(Cl)cc3)C(=O)C3CCCN32)cc1OC (centres undefined) | 0.3% | 0.2 | 23.9% | -8.6%
O=C(CCCCn1c(=O)[nH]c2ccsc2c1=O)NCCc1ccccc1 | -4.4% | 2.8 | -7.8% | -12.1%
O=C(Nc1ccc(C(=O)Nc2ccccc2Cl)cc1)c1cccnc1 | 0.6% | · | -4.5% | -23.4%
O=C(NNC(=S)Nc1ccccc1Cl)c1ccccc1 | 3.8% | · | -5.5% | -57.7%
O=[N+]([O-])c1cc(S(=O)(=O)N2CCOCC2)ccc1NS(=O)(=O)c1ccccc1 | 1.5% | · | 11.1% | ·
CC1(C)CC2(CCO1)CNC(=O)O2 (centres undefined) | -0.2% | -5.1 | 7.0% | 3.8%
CC1(c2nnc(-c3ccc(F)cc3)o2)CC(c2cccnc2)=NO1 (centres undefined) | -0.6% | · | 38.6% | ·
COCc1nnc(NC(=O)c2ccc(S(=O)(=O)N(C)Cc3ccccc3)cc2)o1 | -2.3% | · | -5.5% | 18.9%
CCSc1nnc(NC(=O)c2cnccn2)s1 | -0.4% | -7.8 | 0.4% | -9.0%
COC(=O)CSc1nc2ccc(N)cc2s1 | 2.4% | 8.1 | -2.6% | -2.7%
Cc1ccc(C(=O)NCC(=O)OCC(=O)NC2CCCC(C)C2C)s1 (centres undefined) | -3.9% | -1.9 | 2.1% | 1.9%

Two records drawn at random from those above:
compound | Rango complex inh | GLA inh pH 4.5 | Rango release inh | miR-21 reporter
O=C(Nc1ccc(C(=O)Nc2ccccc2Cl)cc1)c1cccnc1 | 0.6% | · | -4.5% | -23.4%
Cc1ccc(C(=O)NCC(=O)OCC(=O)NC2CCCC(C)C2C)s1 (centres undefined) | -3.9% | -1.9 | 2.1% | 1.9%

(listing goes on)
compound | Rango complex inh | GLA inh pH 4.5 | Rango release inh | miR-21 reporter
CCN(c1ccccc1)S(=O)(=O)c1cccc(C(=O)NCC(c2ccc(F)cc2)N2CCOCC2)c1 (centres undefined) | 1.0% | · | 1.6% | ·
Cc1ccccc1C(=O)N1CCN(c2ccc(NC(=O)c3ccc4c(c3)OCCO4)cc2)CC1 | -0.6% | · | -1.8% | ?
O=C1c2ccccc2C(=O)N1CCCc1c[nH]c2ccccc12 | 0.5% | -23.7 | -4.6% | -28.4%
OC(CNCc1ccccc1)Cn1ccc2ccccc21 (centres undefined) | -0.3% | -9.7 | 11.7% | -9.1%
CCN(CC(=O)Nc1ccccc1C(F)(F)F)C(=O)c1cc(-c2ccccc2)nn1-c1ccccc1 | 5.2% | · | 4.7% | ·
CN(C(=O)COC(=O)c1ccc2c(c1)OCO2)C1CCCCC1 | -0.5% | · | -4.7% | ·
CCN(CC(=O)Nc1c(F)cccc1F)C(=O)/C=C/c1ccc(Br)s1 | 1.7% | · | 0.6% | ·
CCOC(=O)N1CCC(Nc2nc(OC)nc(OC)n2)CC1 | 0.4% | 2.6 | -10.8% | -1.1%
Cn1cc(CN2CCC(C(=O)Nc3cccc(-c4cscn4)c3)CC2)cn1 | -0.7% | · | -5.4% | -4.4%

Screening results deposited in PubChem BioAssay by National Center for Advancing Translational Sciences (NCATS).
